# Screening data deposited in PubChem by Johns Hopkins Ion Channel Center.
# KCNQ2 enhance – potentiators of rat KCNQ2 potassium channel. B-score at 10 µM. AID 2239. O88943. 0.54% of 310,000 active. CHO-K1 KCNQ2, FluxOR thallium flux fluorescence; active compounds read high;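 active = fluorescence ratio B-score at least 3 SD of library B-scores, with initial fluorescence B-score within 3 SD, cut at about 5.3 in these data; same plate scores as AID 2156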;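 note: B-score of peak minus minimum over baseline fluorescence ratio after K+ and Tl+ stimulus; positive B-score means potentiation of KCNQ2 with more thallium influx and brighter signal; only the inactives scoring about 0 or higher are listed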
# Target sequence (O88943 whole entry, looked up): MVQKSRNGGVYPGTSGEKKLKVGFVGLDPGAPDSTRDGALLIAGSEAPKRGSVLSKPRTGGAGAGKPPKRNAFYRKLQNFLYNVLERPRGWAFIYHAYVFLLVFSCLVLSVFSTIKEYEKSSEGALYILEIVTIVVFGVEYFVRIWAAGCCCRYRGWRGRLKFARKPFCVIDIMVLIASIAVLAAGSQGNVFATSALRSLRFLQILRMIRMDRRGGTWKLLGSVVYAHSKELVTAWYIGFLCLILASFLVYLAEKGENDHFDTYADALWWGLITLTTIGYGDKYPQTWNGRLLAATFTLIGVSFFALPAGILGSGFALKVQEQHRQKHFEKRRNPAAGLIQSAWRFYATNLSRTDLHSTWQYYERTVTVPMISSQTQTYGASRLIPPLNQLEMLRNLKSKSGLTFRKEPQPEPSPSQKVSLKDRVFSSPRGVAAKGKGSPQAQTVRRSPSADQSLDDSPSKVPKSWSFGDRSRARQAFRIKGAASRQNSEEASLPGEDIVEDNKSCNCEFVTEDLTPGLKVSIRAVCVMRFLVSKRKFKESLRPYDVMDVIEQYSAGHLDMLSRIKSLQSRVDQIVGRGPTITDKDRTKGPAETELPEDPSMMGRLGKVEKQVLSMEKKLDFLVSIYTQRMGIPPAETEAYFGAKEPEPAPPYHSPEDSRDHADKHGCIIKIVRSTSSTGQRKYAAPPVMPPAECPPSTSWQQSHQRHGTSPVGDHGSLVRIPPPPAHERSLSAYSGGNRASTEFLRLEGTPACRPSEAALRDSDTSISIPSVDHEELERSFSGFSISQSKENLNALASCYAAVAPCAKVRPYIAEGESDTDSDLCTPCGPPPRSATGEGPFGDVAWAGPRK
# KCNQ2 enhance baseline – further read-out of KCNQ2 enhance, marked with its call; B-score; compound at 10 µM; measured here: initial fluorescence intensity artifact check;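 brightness before thallium and not channel activity; 0 = typical well and far values either way flag optical interference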
# * = called active by the depositor. An excerpt. The share of hits here may be higher or lower than overall.
SMILES,KCNQ2 enhance,KCNQ2 enhance baseline
COc1ccc(C(=O)Nc2cc3c(cc2C#N)OCO3)cc1S(=O)(=O)N1CCN(C)CC1,1.5,1.9
COc1ccc(C(=O)NC2CCCCCC2)cc1S(=O)(=O)Nc1ccc(Br)cc1,0.18,-0.23
CC(=O)NCCc1ccc(S(=O)(=O)Nc2ccc(NC(=O)c3ccc(F)cc3)cc2)cc1,0.1,0
Nc1c(-c2ccccc2)nc(Cl)nc1-c1ccccc1,0.09,-1.5
CCOC(=O)Cc1csc(NC(=O)Cc2ccc(Br)cc2)n1,2.1,-2.4
Cc1ccc(OCCSc2nnc(-c3ccncc3)n2C)cc1,0.27,-1.4
Cc1onc(-c2c(Cl)cccc2Cl)c1C(=O)N1CCCCC1,0.51,1
CCN1CCN(C(=O)CN(CC)S(=O)(=O)c2ccc3ccccc3c2)CC1,0.48,0
COC(=O)c1cn(C)c2ccc(S(=O)(=O)N3CCCC3)cc2c1=O,0.07,-0.26
CC1=NN(c2ccc(C)cc2)C(=O)/C1=C\c1ccc(Br)s1,0.07,-0.64
O=C(Nc1nnc(CSCc2ccc(F)cc2)s1)c1ccc([N+](=O)[O-])cc1,0.09,0.62
CCC(C)C(=O)Nc1cccc(SC)c1 (stereo not given),2.1,0.01
O=C(N/N=C/c1cccc2ccccc12)c1cccnc1,0.07,-0.03
CN(C)c1ncc(C(=O)O)cn1,0.66,0.07
COc1ccc(/C=C(/NC(=O)c2ccc(OC)cc2)C(=O)NCCc2c[nH]c3ccccc23)cc1,0.7,-0.67
CS(=O)(=O)N(CC(=O)N1CCCC1)c1cc(C(F)(F)F)ccc1Cl,0.73,0.27
O=C(CN(C(=O)c1csnn1)c1cccc(Cl)c1)NC1CCCCC1,0.2,1.2
CC(C)(C)C1CCC(N2CCN(c3ccccc3)CC2)CC1 (stereo not given),0.93,-0.96
COC(=O)c1sccc1NC(=O)c1ccc(OC)c([N+](=O)[O-])c1,0.45,-1.3
CCc1sc(NC(=O)CN2CCOCC2)nc1-c1ccccc1,1.3,-2.5
CC(=O)N[C@@H](C)C(=O)N1CCN(S(=O)(=O)c2ccc(Cl)cc2)CC1,1.1,2
NC(=O)C1CCN(C(=O)c2cc(S(=O)(=O)N3CCOCC3)c(Cl)cc2Cl)CC1,0.5,-1.4
COc1ccc(S(=O)(=O)N2CCOC23CCN(S(=O)(=O)c2ccccc2)CC3)cc1,1.5,-0.64
CCn1c(SCC(=O)Nc2ccc(N3CCOCC3)c(Cl)c2)nnc1-c1ccc(N)cc1,1.7,-0.01
CCCC(=O)c1ccc(N2CCOCC2)c(F)c1,0.31,-0.47

SMILES,KCNQ2 enhance,KCNQ2 enhance baseline
Cc1nn(-c2ccccc2)c(Cl)c1C(=O)N(C)c1nc(-c2ccc(F)cc2)cs1,0.31,-0.78
CC1=CC(=C(C#N)C#N)C=C(C)N1Cc1ccccc1,0.05,0.98
COc1cccc(-c2n[nH]c(=S)n2Cc2ccco2)c1,0.86,-1.2
CCN(Cc1ccccc1)C(=O)CSc1ncn[nH]1,0.03,0.92
CC(O)(CS(=O)(=O)Cc1ccc(Cl)cc1)C(=O)Nc1cccc(C(F)(F)F)c1 (stereo not given),0.02,-1.2
Cn1c(SCC(=O)N2CCOCC2)nc2c(c1=O)SCC2,1.3,-1.2
CC1(C)c2[nH]c3ccccc3c2C[C@@H]2C(=O)N(c3ccc(F)cc3F)C(=O)N21,1.9,-0.76
COC(=O)CCSc1nc(N2CCOCC2)c2c(c1C#N)CC(C)(C)OC2,1.8,0.1
CCCc1cc(C(N)=O)c(NC(C)=O)s1,0.9,0
O=C(Cn1nnc(-c2ccccc2)n1)N/N=C/c1ccco1,1.9,0
CC(=O)c1cccc(NC(=O)C2CCCN(S(=O)(=O)c3ccccc3)C2)c1 (stereo not given),0.1,-0.12
O=C(N/N=C/c1cc2c(cc1Cl)OCO2)c1ccncc1,1.2,-1.4
O=C(CSc1nnc(SCc2ccc(Cl)cc2)s1)N1CCOCC1,1.2,-0.93
CC(=O)N/C(=C\c1ccccc1)C(=O)NC(C)C(=O)O (stereo not given),0.07,1.4
Cc1cc(C)n(-c2ccc(C(=O)NC(C)C)cc2)n1,1.6,-0.51
O=C(COC(=O)/C=C/c1ccco1)Nc1cccc([N+](=O)[O-])c1,1.2,-0.04
CCCCC(=O)Nc1ccc(N2CCN(c3ccc(F)cc3)CC2)cc1,1,0.22
CCOC(=O)c1cnc(SCc2nc(N)nc(Nc3ccccc3)n2)nc1N,1.2,1.2
CCN1C(=O)CC(c2ccc(OC(C)C)cc2)C1=O (stereo not given),0.15,0.01
O=C(Nc1n[nH]c(C2CCCCC2)n1)C1CCCCC1,1.2,-1.4
Cn1c(N)c(C(=O)COC(=O)CCC2CCCCC2)c(=O)n(C)c1=O,1.7,-0.53
CCN(CC)CCCn1c2c(c(SCC(=O)Nc3nc(C)cs3)nc1=O)CCC2,1.9,1.7
CNc1nc2sc3c(c2c(=O)n1C)CC(C)(C)SC3,1.4,-0.82
CCCCCNC(=O)c1cccnc1SCC(=O)Nc1ccccc1OC,1.8,-2.3
Cc1nc(C(=O)Nc2ccccc2)sc1C(=O)Nc1ccccc1,0.07,-0.06

SMILES,KCNQ2 enhance,KCNQ2 enhance baseline
CCc1c(C)nc2ncnn2c1N1CCC(C(=O)Nc2ccc(C)cc2)CC1,0.73,-1.2
O=C(c1ccco1)N1CCC(c2nc3c(nnn3Cc3ccccc3Cl)c(=O)[nH]2)CC1,0.43,-0.7
O=C1C(=O)N(CCN2CCOCC2)C(c2ccc(Cl)c(Cl)c2)/C1=C(/O)c1ccc2c(c1)OCO2 (stereo not given),0.51,-0.3
CC1Cc2ccccc2N1CC(=O)c1c(N)n(Cc2ccccc2)c(=O)n(C)c1=O (stereo not given),0.25,-0.47
CCOc1cc2[nH]c(=O)n(CCC(=O)NCCc3ccc(OC)c(OC)c3)c(=O)c2cc1OCC,0.48,-0.16
CCOc1cc(/C=N/NC(=O)C(=O)Nc2cc(Cl)ccc2C)ccc1O,0.87,-1.5
CCOC(=O)C1(CCCc2ccccc2)CCN(S(=O)(=O)N(C)C)CC1,1.1,-0.66
CC(C)CNC(=O)COC(=O)c1cc(S(=O)(=O)N(C)C)ccc1N1CCCC1,1.1,-0.23
Cc1ccc(S(=O)(=O)c2nc(C(C)(C)C)oc2N2CCOCC2)cc1,0.86,-2.8
Cc1ccc(C(=O)Nc2ccc(S(=O)(=O)N3CCOCC3)cc2)cc1,0.24,-0.07
CCOC(=O)C1C(=O)CC(C)(O)C(C(=O)OCC)C1c1cc(Br)ccc1OC (stereo not given),0.18,2.6
CCc1cccc(N(C(=O)c2csnn2)C(C(=O)NC(C)(C)C)c2ccncc2)c1 (stereo not given),0.9,-0.12
CCOC(=O)CN1C(=O)N[C@@H](c2ccco2)C(C(=O)OC)=C1C,0.06,-0.35
CC(C)(C)S(=O)(=O)c1nc2ccccc2s1,0.56,0.25
CC(C)Oc1ccc(/C=C(/NC(=O)c2ccccc2)C(=O)NCCC(=O)O)cc1,0.02,0.34
O=C(Nc1nc(-c2ccc(S(=O)(=O)N3CCCC3)cc2)cs1)c1ccco1,1.5,0.99
O=c1[nH]cc(COCc2ccccc2)c(=O)[nH]1,0.96,-1.5
CCN(CC)C(=O)c1cccc2c1C(=O)c1ccccc1-2,0.01,0.88
COc1ccc([C@@H]2C=C(C(=O)O)O[C@H](OCCCCO)C2)cc1,0.02,1.1
O=C(Nc1nccs1)c1c(O)c2c([nH]c1=O)CCCC2,0.83,0.02
CC1(C)Cc2c(c(N3CCOCC3)nc3sc(C(=O)Nc4ccc(Cl)cc4)c(N)c23)CO1,1.5,-1.9
Cc1ccc(CNC(=O)COC(=O)CCC(=O)c2cccs2)cc1,0.17,1.2
O=C(CCS(=O)(=O)c1ccc2c(c1)NC(=O)CO2)NCCc1ccc(Cl)cc1,0.4,-1.3
Cc1oc(C(C)(C)C)c(CN2CCOCC2)c1C(=O)O,1,-0.44
COC(=O)Cn1cnc2c(nnn2-c2ccc(F)cc2)c1=O,0.94,0.48

SMILES,KCNQ2 enhance,KCNQ2 enhance baseline
CC1CC(C)CN(C(=O)CN(C)S(=O)(=O)c2ccc3c(c2)c(=O)n(C)c(=O)n3C)C1 (stereo not given),0.42,0.08
COC(=O)Nc1ccc(S(=O)(=O)NCc2ccccn2)cc1,0.16,1.3
CCCOc1ccc(CCC(=O)N/N=C/c2ccco2)cc1,1.3,0.14
O=C(CCSCc1ccccc1F)NCc1cccnc1,0.39,0.56
O=C(CCC(=O)n1ncc2ccccc21)NCc1ccc(F)cc1,0.35,0.09
Cc1ccc(-n2ncc3c2CC(C)(C)CC3NC(=O)CCc2cnn(C)c2)cc1 (stereo not given),0.64,0.89
COc1ccc(S(=O)(=O)N[C@@H](Cc2ccccc2)C(=O)N2CC[C@@]3(O)CCCC[C@H]3C2)cc1,1.7,-0.73
COc1ccccc1CNC(=O)Cn1cccc1,1.9,-0.91
COc1ccc(S(=O)(=O)N2CCOC2CNC(=O)C(=O)NCc2ccco2)cc1OC (stereo not given),0.27,0.24
O=C(NC(=S)Nc1cccc(Cl)c1N1CCCCC1)c1cccs1,2.2,-0.6
O=C(c1ccc(Cl)cc1)c1cnc(Nc2ccccc2)s1,0.25,0.42
CCOc1ccccc1-c1nc(-c2cc3ccc(C)cc3[nH]c2=O)no1,1.2,-1.2
CCOc1cc(/C=N/NC(=O)CCn2nnc3ccccc32)ccc1O,0.48,-2
Cc1ccc(C(=O)NCC(=O)OCC(=O)Nc2ccc3[nH]c(=O)[nH]c3c2)cc1,0.87,0.88
Fc1ccc(CSc2ccc3nnc(-c4cccs4)n3n2)cc1,0.24,0.07
NC(=S)Nn1c(CCC(=O)O)ccc1-c1ccccc1,0.53,-0.15
CC1(C)C2([N+](=O)[O-])CN(CCO)CC1([N+](=O)[O-])CN(CCO)C2,0.62,1.8
CCOC(=O)c1cc(C)sc1NC(=O)CSc1nnnn1C,1.3,0.12
COc1ccccc1-c1nnc(-c2ccc(N3CCOCC3)cc2)o1,0.19,-0.55
Cc1ccc(Sc2ccc(NC(=O)CCl)cc2)c(C)c1,0.32,-0.1
O=C(NC1CC1)C1=C[C@@H](c2ccc3c(c2)OCO3)C[C@@H](OCc2ccc(CO)cc2)O1,0.16,0.15
N#Cc1ccsc1NC(=O)CN1CCCCCC1,1.8,0.61
Cc1c(C(=O)NCCN(C)C)oc2ccc(S(=O)(=O)N3CCCC3)cc12,0.65,2.1
Cc1cc(NC(=O)COC(=O)c2ccc(NS(=O)(=O)c3ccc(C)c(C)c3)cc2)no1,0.04,0.62
COc1ccc(S(=O)(=O)n2nc(OC(=O)c3ccc(C)cc3)cc2N)cc1,1.7,-0.98

SMILES,KCNQ2 enhance,KCNQ2 enhance baseline
COc1ccc(C(=O)NCCc2nnc(SCc3nc4ccccc4c(=O)[nH]3)n2C)cc1,0.09,-0.08
COc1ccc(NC(=O)CN2CCC(C)CC2)cc1,1.3,0.75
Cc1cc(C(=O)CSc2nnc(N)s2)c(C)n1CCc1ccc(Cl)cc1,0.48,-1.3
O=C(O)c1nccnc1C(=O)Nc1ccc(S(=O)(=O)N2CCOCC2)cc1,0.94,0.05
Cc1cccc(CS(=O)(=O)Cc2ccc(C(=O)NCCN3CCCCC3C)o2)c1 (stereo not given),0.35,-0.46
O=C(CSc1nc2ccccc2c(=O)n1NC(=O)Cc1ccccc1)NCc1ccccc1,0.8,-0.62
O=C(Nc1ccc(F)cc1)c1cccnn1,0.2,-0.22
Cc1cc(C)c(S(=O)(=O)Nc2ccc(O)cc2)cc1C,10*,0.18*
N#CCc1c(C#N)c(N)nc(N2CCN(C=O)CC2)c1C#N,0.16,0.24
O=C(O)CCn1c(=O)sc2ccccc21,0.33,-0.34
C=CCNC(=O)c1ccc2c3n(nc2c1)-c1ccc(C)cc1CO3,0.51,0.07
COc1ccccc1N1C(=O)CC(N2CCc3ccccc32)C1=O (stereo not given),0.86,0.35
CCOc1ccc(NC(=O)C(=O)N/N=C/c2cccnc2)cc1,0.33,-1.5
Cn1c(=O)c(C(=O)NCCO)c(O)c2ccccc21,1.9,-2.9
NC(=NCCc1ccccc1)NS(=O)(=O)c1cccs1,0.16,0.91
CCCn1c2ccccc2c2cnn(CC(=O)NCCCN3CCCCC3)c(=O)c21,1.4,-0.31
CCCCCCSC1=C(C#N)C(=O)NC2(CCCCC2)S1,1.4,-2.5
COc1ccc(C(=O)N(c2ccccc2)C2C=CS(=O)(=O)C2)cc1 (stereo not given),1.7,-0.89
COc1ccc(S(=O)(=O)CCC(=O)N2CCN(c3ccc(C(C)=O)cc3)CC2)cc1,0.29,-1.5
Cc1ccc(NC(=S)c2nc3ccccc3s2)cc1,5,-0.24
Cc1ccc(CCP(=O)(O)CN2CCOCC2)cn1,0.41,0

# Compounds shown so far that have a tert-butyl group (5):
SMILES,KCNQ2 enhance,KCNQ2 enhance baseline
CC(C)(C)C1CCC(N2CCN(c3ccccc3)CC2)CC1 (stereo not given),0.93,-0.96
Cc1ccc(S(=O)(=O)c2nc(C(C)(C)C)oc2N2CCOCC2)cc1,0.86,-2.8
CCc1cccc(N(C(=O)c2csnn2)C(C(=O)NC(C)(C)C)c2ccncc2)c1 (stereo not given),0.9,-0.12
CC(C)(C)S(=O)(=O)c1nc2ccccc2s1,0.56,0.25
Cc1oc(C(C)(C)C)c(CN2CCOCC2)c1C(=O)O,1,-0.44
